Ecoli rRNA inh: inhibits bacterial ribosomal RNA function over humanized ribosomes; E. coli WT GFP vs humanized-ribosome RFP mutants, fluorescence, 24 h; hits give low values; DMSO median 0, no signal -100; GFP signal change (wild-type ribosome), % (test concentration not listed); 1.6% of 350,000 active; AID 720706;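 active means significant combined selectivity score with lowered wild-type GFP, culture density cut under 30%, mutant RFP and density less affected; inactive means any of these conditions unmet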; further: one replicate is shown; some compounds called inactive have numbers as strong as hits
Vif A3G: inhibitors of Vif binding to APOBEC3G peptide, primary screen, biochemical, TR-FRET, GST-Vif 1-94, biotin-A3G peptide, dose response retest (AID 1117319). TR-FRET GST-Vif / biotin-A3G peptide binding; higher % means a stronger effect; test concentration not given here; strong numbers were not always called active. inhibition, %, or IC50 in µM where a hit was titrated. 0.57% of 260,000 active;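 active means above the screen mean plus three standard deviations and confirmed in dose response; inconclusive means results disagree or hit not tested in dose response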;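 further: Vif residues 1-94 fused to GST binding biotinylated APOBEC3G peptide 110-148; 0% = full assay without inhibitor and 100% = GST in place of GST-Vif; retest series ran down from 100 µM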
Ecoli growth: inhibitors of Escherichia coli growth; OD600, 23 h; hits give low values; 0.21% of 330,000 active; OD600 absorbance (test concentration not listed);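 active means OD600 absorbance below the run mean of sample wells minus 3.6 SD, in any replicate, cut at about 0.56 in these data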;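 further: stock transfer was 300 nL into about 60 µL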
ALR H2O2 inh: inhibitors of human sulfhydryl oxidase ALR. AID 485317. inhibition, % (no concentration beside the values). purified ALR, DTT oxidation, H2O2 HRP-luminol luminescence. 3.8% of 290,000 active. P55789;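 active means mean and each replicate at 75% or more; inconclusive means only one of the two met; inactive means neither met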;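 further: stock transfer was 7.5 nL into about 7.5 µL; 0% = neutral wells and 100% = wells with inactivated enzyme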
Target sequence (P55789 whole entry, looked up): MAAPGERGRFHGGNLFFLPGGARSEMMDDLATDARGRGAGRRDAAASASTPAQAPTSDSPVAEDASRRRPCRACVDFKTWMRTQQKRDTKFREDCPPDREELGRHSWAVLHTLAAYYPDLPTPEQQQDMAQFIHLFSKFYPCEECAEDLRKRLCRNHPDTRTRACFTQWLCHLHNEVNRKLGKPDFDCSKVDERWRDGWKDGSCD
FGF22 binding: shifts melting point of recombinant human FGF22; recombinant FGF22 thermal shift, SYPRO orange fluorescence; percent of sucrose octasulfate shift, DMSO zero; 1.5% of 340,000 active; calls only at 9.99 µM; Q9HCT0;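 active means melting point raised past a set limit in the mean and every replicate; inconclusive means no clear call; three in four hits are not shown here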
Target sequence (Q9HCT0 whole entry, looked up): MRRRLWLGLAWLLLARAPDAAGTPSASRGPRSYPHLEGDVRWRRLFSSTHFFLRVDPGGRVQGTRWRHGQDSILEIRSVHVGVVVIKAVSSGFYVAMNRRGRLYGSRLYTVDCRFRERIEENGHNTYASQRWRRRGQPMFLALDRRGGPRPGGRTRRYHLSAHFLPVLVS
HNF4A DNA FP: change in binding of human HNF4 alpha to DNA. activity change, % at 10 µM. AID 1224865. P41235. 0.3% of 360,000 active. HNF4a-FITC DNA binding, fluorescence polarization, 1 h; in the data active means activity change above about 30%, passing the limit was not always enough;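 further: controls were the assay level and a saturating level of protein; the project sought stronger binding though the title names inhibitors; some compounds called inactive have numbers as strong as hits; positive values seem to mean higher polarization but the record does not say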
Target sequence (P41235 whole entry, looked up): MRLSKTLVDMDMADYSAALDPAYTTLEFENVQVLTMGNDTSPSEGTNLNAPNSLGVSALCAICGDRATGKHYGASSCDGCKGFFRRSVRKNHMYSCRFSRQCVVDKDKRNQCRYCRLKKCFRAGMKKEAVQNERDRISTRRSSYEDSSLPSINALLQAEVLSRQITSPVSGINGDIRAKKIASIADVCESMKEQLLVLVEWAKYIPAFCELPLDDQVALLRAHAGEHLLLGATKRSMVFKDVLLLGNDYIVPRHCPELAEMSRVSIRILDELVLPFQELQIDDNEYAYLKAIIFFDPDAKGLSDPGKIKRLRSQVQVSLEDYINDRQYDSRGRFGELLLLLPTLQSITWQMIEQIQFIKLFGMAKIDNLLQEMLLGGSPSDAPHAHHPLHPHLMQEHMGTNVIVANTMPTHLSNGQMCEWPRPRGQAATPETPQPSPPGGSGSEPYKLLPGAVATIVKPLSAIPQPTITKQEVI
MLL AF4-AF9 inh: blocks AF4 peptide binding to human AF9 | P42568 | AlphaScreen, biotin-AF4 peptide binding to FLAG-AF9 | inhibition, % at 10 µM | 0.47% of 350,000 active | AID 651704;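 active means every replicate reaching a set inhibition limit, whatever the replicate mean, cut at about 25% in these data; inconclusive means mean inhibition reaches that limit but some replicates miss it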;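 further: 0% = plate neutral control median and 100% = total signal loss; the record names both 10 and 1 µM as test concentration; the first replicate is given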
Ecoli rRNA inh OD600: second read-out of Ecoli rRNA inh, no call of its own (marks repeat the call); OD600 change, %; measured here: OD600 growth;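 optical density of the mix in the first replicate; 0 = DMSO median and -100 = no signal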
Ecoli rRNA inh RFP: second read-out of Ecoli rRNA inh, no call of its own (marks repeat the call); RFP signal change, %; measured here: RFP humanized mutant strains;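 first replicate; 0 = DMSO median and -100 = no signal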
* = called active by the depositor; i = inactive; ? = inconclusive; / = no result given. The list is partial. The share of hits here may be higher or lower than overall.

SMILES	Ecoli rRNA inh	Ecoli rRNA inh OD600	Ecoli rRNA inh RFP	Vif A3G	Ecoli growth	ALR H2O2 inh	FGF22 binding	HNF4A DNA FP	MLL AF4-AF9 inh
CCOc1ccc(Nc2nc(N3CCCC3)nc(N3CCN(c4ccc(OC)cc4)CC3)n2)cc1	5	9	-1.4	-8%	0.71	/	i	-2.9	0.1
COc1ccc(-n2c(C)nc3cc(C(=O)NCc4ccc5c(c4)OCO5)ccc32)cc1	/	/	/	4%	0.68	14	i	0.9	-0.2
Cc1ncoc1C(=O)N1CCCC(C(=O)c2cccc(OC(C)C)c2)C1 (centres undefined)	5	-1	4.4	/	0.66	-4	i	-4.6	-2.9
C[C@@H]1CN([C@H](C)CO)C(=O)Cc2cc(NS(C)(=O)=O)ccc2O[C@@H]1CN(C)Cc1ccncc1	0	-7	1.4	/	/	/	i	/	-4.1
CNC[C@H]1Oc2ccc(NC(=O)c3ccncc3)cc2C(=O)N([C@H](C)CO)C[C@H]1C	1	11	1.5	/	/	/	i	/	1.3
COc1cccc(-c2nc3ccc(C(=O)N4CCCC(O)C4)cc3o2)c1 (centres undefined)	0	0	-3.7	2%	0.66	-1	i	2.2	-2.9
Cc1ccc2cc(C#N)c(NCCNC(=O)C3CC3)nc2c1C	/	/	/	-6%	0.73	-12	/	-1.8	/
O=C(C[C@@H]1CC[C@H](NC(=O)C2CCOCC2)[C@H](CO)O1)Nc1nccs1	1	3	-1.4	/	/	/	i	/	-1.3
C=CCn1cc(C(=O)OCC)c(=O)c2ccc(F)cc21	9	3	-1.0	-2%	0.68	-1	i	-3.0	0.6
COC(=O)CCC(=O)NC(=S)Nc1ccc(S(=O)(=O)Nc2cc(OC)nc(OC)n2)cc1	/	/	/	-3%	0.72	9	/	5.4	/
O=C(O)CC/C(=C\c1ccc(N2CCCC2)c([N+](=O)[O-])c1)c1nc2ccccc2s1	-40*	-22*	3.8*	7%	0.7	4	i	-1.5	0.2
COc1ccc(C2(CNC(=O)c3ccccc3[N+](=O)[O-])CCOCC2)cc1	14	6	3.2	11%	0.7	1	i	0.8	0.5
Cn1c2c(c(=O)n(C)c1=O)C(CC(=O)Nc1ccccc1F)C(=O)N2 (centres undefined)	1	0	-0.3	2%	0.65	/	i	0.2	-0.6
CCC(C(=O)Nc1ccc(S(=O)(=O)N2CCN(C)CC2)cc1)c1ccccc1 (centres undefined)	3	-1	-1.1	/	0.72	-13	i	-6.6	1.0
c1cc(-c2ccoc2)n2ccnc2c1	/	/	/	/	/	/	i	-15	-0.9
CO[C@H]1CN(C)C(=O)c2cc(NC(=O)c3ccccc3)ccc2OC[C@H](C)N(C)C[C@H]1C	6	1	-1.5	/	/	/	i	/	-2.2
CCOc1ccccc1NC(=O)CN1C(=O)NC(Cc2c[nH]c3ccccc23)C1=O (centres undefined)	-2	-2	0.0	10%	0.66	28	i	3.5	1.5
CCOc1cc(C(=O)O)cc(Cl)c1OCC#N	1	-3	-0.2	/	0.66	/	i	1.2	5.4
C[C@H]1CCCCO[C@@H](CN(C)Cc2ccc3c(c2)OCO3)[C@@H](C)CN([C@@H](C)CO)C(=O)c2cc(NC(=O)Nc3ccccc3)ccc2O1	-9	-45	28	/	/	/	i	/	7.6
COc1ccc(C(=O)N2CC(=O)Nc3ccccc32)cc1S(=O)(=O)N1CCOCC1	-4	-2	-5.6	0%	0.73	/	i	1.6	2.3

Two entries drawn at random from those above, as already listed:
SMILES	Ecoli rRNA inh	Ecoli rRNA inh OD600	Ecoli rRNA inh RFP	Vif A3G	Ecoli growth	ALR H2O2 inh	FGF22 binding	HNF4A DNA FP	MLL AF4-AF9 inh
COc1ccc(C(=O)N2CC(=O)Nc3ccccc32)cc1S(=O)(=O)N1CCOCC1	-4	-2	-5.6	0%	0.73	/	i	1.6	2.3
c1cc(-c2ccoc2)n2ccnc2c1	/	/	/	/	/	/	i	-15	-0.9

Carrying on:
SMILES	Ecoli rRNA inh	Ecoli rRNA inh OD600	Ecoli rRNA inh RFP	Vif A3G	Ecoli growth	ALR H2O2 inh	FGF22 binding	HNF4A DNA FP	MLL AF4-AF9 inh
COc1ccc(OC)c(CN2CCCC(C(=O)c3ccccc3SC)C2)c1 (centres undefined)	-18*	-13*	6.6*	2%	0.66	1	i	1.9	/
COc1ccc(CN2CCN(C(=O)Cn3ncn4cccc4c3=O)CC2)c(OC)c1OC	10	9	0.1	9%	0.71	-3	i	0.0	-2.1
C[C@H](NC(=O)C[C@H]1CC[C@@H](NC(=O)Cc2ccccn2)[C@H](CO)O1)c1ccccc1	0	3	-0.6	/	/	/	i	/	0.8
CCS(=O)(=O)n1nc(NCc2cccc(OC)c2)nc1NCc1cccc(OC)c1	/	/	/	4%	0.8	-1	/	-5.3	/
CCOc1ccc(NC(=O)N2CCC(C(=O)c3ccc(F)cc3)CC2)cc1	/	/	/	5%	0.74	-4	/	3.4	/
O=C(NC(c1ccccc1)c1ccccc1)c1ccc(S(=O)(=O)C(F)F)cc1	/	/	/	1%	0.71	-15	/	1.1	/
Cc1ccc(-c2cc(=O)[nH][nH]2)c(C)c1	/	/	/	3%	0.71	-22	/	1.8	/
CC(C)NC(=O)N[C@@H]1CC[C@@H](CC(=O)O)O[C@@H]1CO	2	4	-1.1	/	/	/	i	/	-2.9
COc1ccc(C2CC(c3ccc(F)cc3)n3nc(NC(=O)c4ccco4)nc3N2)cc1 (centres undefined)	-2	-9	6.5	-13%	0.65	-20	i	1.7	3.1
CC1CCC2(CC1)NC(=O)N(CC(=O)NC(C)c1ccc(F)c(F)c1)C2=O (centres undefined)	0	5	-1.3	/	0.65	0	i	4.0	-8.0
Cc1ccc(C)c(C(=O)COC(=O)Cn2[nH]c(=O)c3ccccc3c2=O)c1	5	13	3.5	4%	0.71	-3	i	-0.2	2.5
Cc1ccc(S(=O)(=O)Nc2cccc3c2O[C@H](CN(C)C(=O)Nc2cccc4ccccc24)[C@@H](C)CN([C@@H](C)CO)C3=O)cc1	2	-1	0.9	/	/	/	i	/	-0.9
CCOC(=O)N1CCN(Cc2nc(N)nc(Nc3ccc(OCC)cc3)n2)CC1	/	/	/	8%	0.69	-1	/	6.9	/
CN1C[C@H]2CON(C)[C@H]2C[C@H]1c1cccc(-c2ccccc2)c1	9	5	2.3	-1%	/	/	i	2.6	0.3
CC(C)NC(=O)Nc1ccc2c(c1)C(=O)N([C@@H](C)CO)C[C@@H](C)[C@H](CN(C)C(=O)Nc1ccc(C(F)(F)F)cc1)OCCCC[C@@H](C)O2	1	8	-0.4	/	/	/	i	/	-0.9
COc1ccc(S(=O)(=O)N[C@@H]2CC[C@H](CC(=O)N3CCC(Cc4ccccc4)CC3)O[C@@H]2CO)cc1	9	-19	17	/	/	/	i	/	4.7
CC1(C)CC(=O)C2=C(C1)OC(N)=C(C#N)C21CCN(C(=O)OCc2ccccc2)CC1	/	/	/	-10%	0.69	3	/	5.1	/
COc1ccc(NC(=O)c2c(N)no[n+]2[O-])cc1	12	3	-6.7	/	0.69	-13	i	4.0	-0.6
CC1CCCCN1C(=O)CSc1nc2ccsc2c(=O)n1Cc1ccccn1 (centres undefined)	/	/	/	?	0.73	-5	/	-2.7	/
CCCNc1c(NC(=O)COc2ccc(Cl)cc2)c(=O)oc2ccccc12	0	9	-1.1	/	0.69	-11	i	7.4	-3.7

Profiles from above.
Profile of Cc1ccc(-c2cc(=O)[nH][nH]2)c(C)c1 : Ecoli rRNA inh: /; Ecoli rRNA inh OD600: /; Ecoli rRNA inh RFP: /; Vif A3G: 3%; Ecoli growth: 0.71; ALR H2O2 inh: -22; FGF22 binding: /; HNF4A DNA FP: 1.8; MLL AF4-AF9 inh: /
Profile of CO[C@H]1CN(C)C(=O)c2cc(NC(=O)c3ccccc3)ccc2OC[C@H](C)N(C)C[C@H]1C : Ecoli rRNA inh: 6; Ecoli rRNA inh OD600: 1; Ecoli rRNA inh RFP: -1.5; Vif A3G: /; Ecoli growth: /; ALR H2O2 inh: /; FGF22 binding: i; HNF4A DNA FP: /; MLL AF4-AF9 inh: -2.2

Additional compounds
SMILES	Ecoli rRNA inh	Ecoli rRNA inh OD600	Ecoli rRNA inh RFP	Vif A3G	Ecoli growth	ALR H2O2 inh	FGF22 binding	HNF4A DNA FP	MLL AF4-AF9 inh
CCCc1nc2nc(C)c(NS(=O)(=O)c3ccc(F)cc3)c(=O)n2[nH]1	8	10	-2.4	/	0.71	15	i	-0.1	1.0
O=C(NCc1ccccc1)[C@@H]1CCCN1C(=O)[C@H]1CCCN1C(=O)c1ccccc1C(F)(F)F	11	10	4.7	/	/	/	i	/	-2.2
COc1ccc(-n2c(SCC(=O)NCC3CCCO3)nc3c(c2=O)SCC3)cc1OC (centres undefined)	5	14	-1.3	/	0.71	-7	i	-7.2	1.2
COc1cccc(-c2nc(CS(=O)(=O)CC(=O)Nc3c(C)cccc3C)c(C)o2)c1	1	12	-1.6	-2%	0.77	11	i	-1.2	-20
O=C(CCNC(=O)N1CC(=O)Nc2ccccc21)NCc1ccc(Cl)cc1	0	11	-0.6	-5%	/	/	i	-2.4	-1.0
CCCNC(=O)N1C[C@H](C)[C@H](OC)CN(C)C(=O)c2ccc(NS(=O)(=O)CC(F)(F)F)cc2OC[C@@H]1C	-3	0	-2.4	/	/	/	i	/	-2.9
COCC(=O)N1[C@H](CO)[C@H]2c3ccccc3N(C(=O)NC(C)C)C[C@H]21	4	4	-0.1	/	/	/	i	/	-1.0
COc1cc(OC)c2c(c1)OC(=O)CC2c1cc(OC)c(OC)c(OC)c1 (centres undefined)	-15	-7	2.3	6%	0.71	/	i	3.2	-0.3
C[C@@H]1CN([C@@H](C)CO)C(=O)c2cccc(NC(=O)Nc3ccccc3)c2O[C@H]1CN(C)S(=O)(=O)c1cn(C)cn1	2	2	-2.3	/	/	/	i	/	-4.1
COc1ccc(NC(=O)Cc2ccccc2)cc1	/	/	/	3%	0.69	-4	/	-0.3	/
O=P(CCC(F)(F)F)(CCC(F)(F)F)CCC(F)(F)F	/	/	/	2%	0.69	-21	/	0.5	/
CCCCCN(C(=O)CCC(=O)OCC(=O)Nc1cccc(CC)c1)c1c(N)n(CCCC)c(=O)[nH]c1=O	7	9	-2.2	2%	0.63	-3	i	-1.1	?
Cn1nnc2sc3c(c2c1=O)CCCC3	/	/	/	?	0.66	-22	/	-1.4	/
Cc1ccc(NC(=O)c2cccnc2C(=O)O)nc1	9	3	2.2	/	0.66	-7	i	0.6	0.3
Cc1cc(/C=C2\C(=N)N3N=C(S(C)(=O)=O)SC3=NC2=O)c(C)n1Cc1ccccc1	-41	-62	-15	/	0.73	57	i	-1.4	-1.9
O=C(CCc1ccccc1)NC(NC(=S)Nc1cccc(Cl)c1)C(Cl)(Cl)Cl (centres undefined)	-6	-10	6.8	16%	0.66	/	i	-3.6	-1.4
COc1ccc(S(=O)(=O)NNC(=O)C2Cc3c(ccc4ccccc34)O2)cc1 (centres undefined)	/	/	/	-8%	0.71	/	/	-1.5	/
O=C(C[C@H]1CC[C@@H](NC(=O)Nc2ccc3c(c2)OCO3)[C@H](CO)O1)NCc1ccccc1	1	-5	1.3	/	/	/	i	/	-2.6
CC1(C)CC(=O)c2c(O)cc(OCc3ccc(Br)cc3)cc2O1	0	4	-2.4	2%	0.75	4	i	2.9	2.5
C[C@H]1CN([C@@H](C)CO)C(=O)c2cc(Br)cnc2O[C@@H]1CN(C)S(=O)(=O)c1ccc(F)cc1	-3	-7	1.2	/	/	/	i	/	-1.4
CCc1nc2c(OCc3ccc(Cl)cc3)cccn2c1N(C)C(=O)c1cccs1	-27	-53	1.1	/	/	/	i	3.2	3.6
